# Source: PubChem BioAssay
# RGS16-Gao HTS: modulators of RGS16 binding to Galphao, primary screen, biochemical, human proteins, multiplexed bead flow cytometry. bead-based flow cytometry RGS16-Galphao binding, fluorescence; actives lie on both sides. binding response (% of control), % at 10 µM. hit rate 0.38% among 220,000. AID 1441, 2008;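 active = below 25% or above 175%, edge rows of some plates excepted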;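 note: Galphao activated by GDP with aluminum fluoride before binding; 100% = wells without compound and 0% = beads without RGS; some results beyond the cut were filed as inactive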
# HSV replic up: enhancers of HSV replication in host cells, fold increase, host cell viability; maximum fold increase; HSV replication augmentation in cells; hit rate 0.005% among 220,000;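 active = peak rise of 1.5-fold or more in the series; inconclusive = self-fluorescent or not available for retest; tested in PC3 cells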;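 note: first round at 10 µM; read as green reporter fluorescence; hits show the peak of a series up to 25 µM; 1 = signal of infected wells without compound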
# PKD1 kinase inh: inhibitors of human PKD1 kinase, biochemical, fluorescence polarization; inhibition, %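 (about 10 µM by stock and volumes)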; PKD1 kinase fluorescence polarization assay; Serine/threonine-protein kinase D1 (Homo sapiens), Q15139; hit rate 0.056% among 200,000;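 active = inhibition of 50% or more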;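 note: controls were vehicle for no effect and a reference inhibitor for full effect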
# Target sequence (Q15139 whole entry, looked up): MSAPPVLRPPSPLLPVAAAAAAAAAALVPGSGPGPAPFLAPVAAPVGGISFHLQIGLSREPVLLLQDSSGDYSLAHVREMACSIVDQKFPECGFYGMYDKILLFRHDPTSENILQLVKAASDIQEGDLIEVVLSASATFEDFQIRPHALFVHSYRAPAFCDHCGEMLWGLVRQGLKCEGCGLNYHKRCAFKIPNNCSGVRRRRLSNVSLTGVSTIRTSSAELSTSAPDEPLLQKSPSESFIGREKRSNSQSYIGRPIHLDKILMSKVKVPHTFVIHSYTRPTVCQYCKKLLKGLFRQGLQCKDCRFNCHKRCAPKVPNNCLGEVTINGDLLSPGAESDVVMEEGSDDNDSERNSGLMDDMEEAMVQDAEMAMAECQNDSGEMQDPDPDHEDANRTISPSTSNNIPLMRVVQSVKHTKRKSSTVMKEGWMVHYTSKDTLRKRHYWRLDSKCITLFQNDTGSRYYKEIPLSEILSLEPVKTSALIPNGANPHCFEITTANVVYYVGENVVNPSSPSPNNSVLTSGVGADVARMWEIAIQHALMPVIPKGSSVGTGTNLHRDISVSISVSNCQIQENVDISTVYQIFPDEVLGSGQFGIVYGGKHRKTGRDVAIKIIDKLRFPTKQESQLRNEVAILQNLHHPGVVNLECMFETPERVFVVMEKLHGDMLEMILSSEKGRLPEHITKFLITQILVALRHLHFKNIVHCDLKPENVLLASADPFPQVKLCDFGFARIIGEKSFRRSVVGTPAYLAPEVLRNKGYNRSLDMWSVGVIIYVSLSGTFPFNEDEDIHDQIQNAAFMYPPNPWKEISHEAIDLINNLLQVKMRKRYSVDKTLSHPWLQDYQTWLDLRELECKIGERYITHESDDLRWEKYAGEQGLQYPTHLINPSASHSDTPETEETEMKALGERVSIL
# GALR2 agonist: GALR2 receptor agonists, primary screen, cell-based; Galanin receptor type 2 (Homo sapiens), O43603; GALR2-expressing cells, agonist activation read-out; activation, %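 (tested at 5 µM)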; hit rate 0.48% among 140,000;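 active = above mean plus 3 SD of all compounds, about 5% in these data, not always enough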;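 note: 0% = vehicle buffer wells and 100% = reference agonist at full effect; tested in CHO reporter cells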
# INS promoter inh: inhibitors of insulin promoter-driven GFP, primary screen, imaging, TRM-6 cells (human fetal islet line), eGFP reporter, cell count. reporter expression induced with tamoxifen. inhibition, % at 2 µM. hit rate 0.9% among 130,000. AID 1273, 2008;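 active = inhibition above the mean plus 3 SD, with well images judged a real hit on visual review, cut at about 60% in these data, passing the limit was not always enough; inconclusive = inhibition over the cutoff but images rejected on review; inactive = inhibition not above the cutoff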
# INS promoter inh cell count: also measured in INS promoter inh; calls as there; normalized cell count, %; measured here: cell count, toxicity; reference of the scale not given here;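 cells exposed to compound for 48 h; stained nuclei by imaging scaled within each plate; lower means fewer cells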
# HSV replic up primary fold: recorded beside HSV replic up, whose call it bears; fold increase; compound at 10 µM; measured here: primary screen fold increase 10 uM; tested in PC3 cells;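 GFP signal in the first replicate; 1 = infected wells without compound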
# * = called active by the depositor; i = inactive; ? = inconclusive; nt = no result given; & = joins results of further samples.
SMILES,RGS16-Gao HTS,HSV replic up,HSV replic up primary fold,PKD1 kinase inh,GALR2 agonist,INS promoter inh,INS promoter inh cell count
O=C(/C=C/c1ccco1)NCC1(c2ccccc2)CCCC1,73,i,1,-13,-1.3,-45,74
COc1ccc(S(=O)(=O)n2nc(-c3ccc(Cl)cc3)cc2N)cc1,96,i,0.88,nt,nt,nt,nt
Cc1ccc(CS(=O)(=O)CCC(=O)NCc2ccc3c(c2)OCO3)cc1,104,i,1.1,-4,-0.6,-38,96
CCNS(=O)(=O)c1ccc(C(=O)Nc2ccccc2)cc1,101,i,0.96,2,-3.6,23,50
COc1cc(C)nc(N2CCCC(C(=O)NCC(C)C)C2)n1 (configuration not stated),114,i,0.99,0,-2.7,-190,90
Cc1ccsc1C(=O)C1CCCN(Cc2cccn2-c2ccc(Cl)cn2)C1 (configuration not stated),99,i,0.8,8,nt,nt,nt
COc1ccc(C(=O)N2CCN(S(=O)(=O)N3CCOCC3)CC2)cc1OC,92,i,0.75,1,-1.2,50,84
COc1ccc2cc(CN(Cc3ccco3)C(c3nnnn3C3CCCCC3)C(C)C)c(=O)[nH]c2c1 (configuration not stated),117,i,0.85,-10,1.0,-14,37
CN(Cc1ccccc1)S(=O)(=O)c1ccc2[nH]cc(C(=O)NCC3CCCO3)c(=O)c2c1 (configuration not stated),100,nt,nt,-2,-0.9,nt,nt
Oc1ccc(Cl)cc1/C=N/c1nccs1,100,i,1.1,-7,-1.4,-19,119
O=C(Cn1c(O)c(/C=C2\C=Nc3ccccc32)sc1=O)Nc1ccc2c(c1)OCO2,110,i,0.78,8,-0.6,nt,nt
Cc1cc([N+](=O)[O-])nn1CC(=O)NNC(=S)Nc1ccc([N+](=O)[O-])cc1,97,i,1.1,12,-1.9,nt,nt
O=C1CCC(C(=O)Nc2nnc(C3CC3)s2)=NN1,110,i,0.93,-7,nt,-33,87
CSCC[C@H](NC(=O)NC1CCCC1)C(=O)O,100,i,0.99,nt,nt,nt,nt
COc1cccc(C(=O)N2CCN(Cc3cn[nH]c3-c3ccc(F)cc3F)CC2)c1,111,i,0.92,1,nt,nt,nt
CC1(C)CC2(CCO1)OC(=O)CC2C(=O)Nc1ccccc1Cl (configuration not stated),102,i,1.2,0,nt,nt,nt
CC(C)NC(NC(=O)Cc1ccccc1)C(Cl)(Cl)Cl (configuration not stated),104,i,1.1,-2,-1.6,nt,nt
CCC(C)(C)NC(=O)CCCSc1nc2ccccc2s1,99,i,0.92,1,nt,nt,nt
CCOC(=O)Cc1csc(NC(=O)/C=C\c2ccccc2)n1,103,i,0.9,-2,nt,nt,nt
NC(=O)N1c2ccccc2CC(=O)c2ccccc21,101&88,i,0.88,-7,-0.8,nt,nt

# Of the compounds above, 5 contain a Cl atom:
SMILES,RGS16-Gao HTS,HSV replic up,HSV replic up primary fold,PKD1 kinase inh,GALR2 agonist,INS promoter inh,INS promoter inh cell count
COc1ccc(S(=O)(=O)n2nc(-c3ccc(Cl)cc3)cc2N)cc1,96,i,0.88,nt,nt,nt,nt
Cc1ccsc1C(=O)C1CCCN(Cc2cccn2-c2ccc(Cl)cn2)C1 (configuration not stated),99,i,0.8,8,nt,nt,nt
Oc1ccc(Cl)cc1/C=N/c1nccs1,100,i,1.1,-7,-1.4,-19,119
CC1(C)CC2(CCO1)OC(=O)CC2C(=O)Nc1ccccc1Cl (configuration not stated),102,i,1.2,0,nt,nt,nt
CC(C)NC(NC(=O)Cc1ccccc1)C(Cl)(Cl)Cl (configuration not stated),104,i,1.1,-2,-1.6,nt,nt

# Another view of 2 compounds above.
Compound	RGS16-Gao HTS	HSV replic up	HSV replic up primary fold	PKD1 kinase inh	GALR2 agonist	INS promoter inh	INS promoter inh cell count
Cc1ccc(CS(=O)(=O)CCC(=O)NCc2ccc3c(c2)OCO3)cc1	104	i	1.1	-4	-0.6	-38	96
CCNS(=O)(=O)c1ccc(C(=O)Nc2ccccc2)cc1	101	i	0.96	2	-3.6	23	50

# Continued:
SMILES,RGS16-Gao HTS,HSV replic up,HSV replic up primary fold,PKD1 kinase inh,GALR2 agonist,INS promoter inh,INS promoter inh cell count
O=C1CC(N2CCN(c3ccc(Cl)c(Cl)c3)CC2)C(=O)N1 (configuration not stated),96,i,0.93,-3,-2.0,69,82
CCOC(=O)c1[nH]c2ccc(OC)cc2c1NC(=O)/C=C/c1ccc2c(c1)OCO2,96,i,0.75,1,-1.3,6,65
FC(F)(F)c1cccc(N2CCc3cn[nH]c32)c1,101,i,0.67,-4,-1.3,-411,44
COc1ccc(OCC(=O)Nc2ccc(N3CCOCC3)cc2)cc1,96,i,0.87,-4,-1.3,nt,nt
COCCNC(=O)CN(c1ccc(C)cc1)S(=O)(=O)c1ccc(SC)cc1,99,i,0.98,0,-1.9,nt,nt
Cc1nc(-c2ccccc2)sc1C(=O)CSc1ccccc1,85,i,0.99,-4,-2.7,0,149
CCOc1ccccc1-c1cc(C(=O)N/N=C/c2ccc3c(c2)OCO3)c2ccccc2n1,102,?,nt,-7,-2.9,31,69
Nc1ccccc1C(=O)/C=C/c1ccc2c(c1)OCO2,198,i,0.7,-9,0.0,-10,111
CCOC(=O)c1cnn(-c2nc3c(C)cccc3s2)c1C(F)(F)F,102,i,1,2,-2.0,22,115
COC(=O)C1=C(C)NC(C)=C(C(=O)OC)C1C(=O)OCC(=O)N1c2ccccc2CC1C (configuration not stated),105,i,1.1,-4,0.0,10,133
COCCN(CCOC)C(=O)c1c[nH]c2ccc(S(=O)(=O)N(C)c3ccc(F)cc3)cc2c1=O,99,i,0.8,0,-2.2,nt,nt
CN(c1ccc(C(=O)Nc2cccc([N+](=O)[O-])c2)cc1)S(C)(=O)=O,97,i,0.97,-9,nt,-14,78
O=S(=O)(NCCc1ccccc1)c1cccc2cccnc12,100,i,0.97,-4,nt,-31,82
O=[N+]([O-])c1cccc(CNCc2ccccc2)c1,99,i,1,2,nt,0,121
O=S(=O)(/N=C(/Nc1ccc(F)cc1F)c1ccccc1)c1ccc(Br)cc1,147,i,1.1,-7,-0.8,nt,nt
O=C(COc1c(Br)cc(Br)c2cccnc12)Nc1ccccc1F,95,i,1,3,nt,21,102
CCCNC(=O)Nc1ccc(C)cc1C,96,i,1.2,nt,nt,nt,nt
COc1cc(C(=O)OCC(=O)NCCN2C(=O)CSC2=O)ccc1OCc1c(C)noc1C,98,i,0.99,-7,nt,nt,nt
CCCn1cc2c(c1-c1ccc(C)cc1)c(=O)n(C)c(=O)n2C,106,i,0.81,-9,nt,nt,nt
COc1ccc(C(=O)COc2ccc(C)cc2NC(C)=O)cc1,105,i,1,nt,nt,nt,nt
C#CCOCCOCCOCCNc1nc(N2CCN(C(=O)[C@H](CCCCN)n3cc(C(N)CO)nn3)CC2)nc(N2CCN(C(=O)[C@H](CCC(=O)O)n3cc(C(N)[C@H](C)CC)nn3)CC2)n1 (some centres not stated),122,nt,nt,3,nt,nt,nt
CCOC(=O)N1CCC(O)(c2cc(C)c(C)cc2C)CC1,102,i,1,1,-2.9,-7,139
CCOC(=O)c1ccc(CNC(=O)CSc2nc(NC(=O)c3ccccc3)c3c(C)c(C)oc3n2)cc1,102,i,0.91,5,-1.5,-20,141
CCc1nnc(NC(=O)CN2CCC(O)(c3ccccc3OC)CC2)s1,104,i,0.8,-4,-2.2,-3,124
COc1ccc(-n2c(Cc3cccs3)nnc2SCC(=O)Nc2ccc3c(c2)OCCO3)cc1,98,i,1,-4,0.1,-21,135
CC(=O)NC(Cc1cccc(F)c1)C(=O)NC1CCN(C(=O)c2cccc(C)c2)CC1 (configuration not stated),98,i,0.94,4,nt,38,61
CCCCC(=O)NC(Nc1sc2c(c1C(N)=O)CCCC2)(C(=O)OCC)C(F)(F)F (configuration not stated),91,i,0.95,1,-1.6,-138,78
O=C(O)CCc1ccc(S(=O)(=O)N2CCOCC2)cc1,100,i,1.1,1,-2.8,30,48
CCc1cccc2[nH]c3cc([N+](=O)[O-])ccc3c12,94,i,0.9,nt,nt,nt,nt
O=C(COC(=O)C1(c2ccc(F)cc2)CCCC1)Nc1ncc(C(F)(F)F)cc1Cl,105,i,1,10,0.2,7,124
C=CCNC(=S)NNc1nc2c(c(=O)[nH]1)C1(CCCCC1)Cc1ccccc1-2,104,i,0.96,6,0.7,26,94
Cn1c(NC(=O)c2ccccc2C(F)(F)F)cc(=O)n(C)c1=O,101,i,0.84,-3,-3.1,nt,nt
CC(Nc1cc(N2CCCC2)ccc1[N+](=O)[O-])c1ccccc1 (configuration not stated),99,i,0.92,6,-0.2,-12,64
O=C1C(CCCNC(=S)NCc2ccccc2)NC(=S)N1Cc1ccccc1 (configuration not stated),67,i,1,-6,-1.6,-8,82
O=C(CN1C(=O)NC2(CCc3ccccc3C2)C1=O)Nc1ccc(F)cc1 (configuration not stated),102,i,0.8,-5,-1.1,nt,nt
CCOC(=O)C(NC(=O)c1ccccc1)(OCC1(CC)COC1)C(F)(F)F (configuration not stated),102,i,0.82,-3,-0.1,21,67
O=C(CNc1ccc(F)cc1)N/N=C1\CCCc2ccccc21,115,i,0.83,-8,nt,nt,nt
Cc1noc(C)c1C(=O)Nc1sc(C)c(-c2ccccc2)c1C#N,100,i,1,5,-0.5,-9,71
Cc1ccc(S(=O)(=O)N(CC(=O)Nc2ccccc2C(=O)O)c2ccccc2)cc1,102,i,0.97,-1,nt,nt,nt
CCOC(=O)C1=C(C)NC2=C(C(=O)OC2)C1c1ccccc1 (configuration not stated),107,i,0.86,2,nt,nt,nt
CCOC(=O)c1nc(-c2ccccc2)sc1C(C)=O,106,i,0.92,nt,nt,nt,nt
CSCC[C@H](NC(=O)NCCC1=CCCCC1)C(=O)O,96,i,1,1,-1.7,nt,nt
CCCCNC(=O)c1cc(-c2ccc(OC)c(OC)c2)on1,103,i,0.95,-14,-1.2,nt,nt
CC(C)(C)c1ccc(/C=C/C(=O)N2CCCCC2)cc1,95,i,1,0,nt,-335,26
Cc1ccc(N2CC(C(=O)NC3=NCCS3)CC2=O)cc1 (configuration not stated),106,i,1,-3,-1.4,10,45
CCc1cc(C(=O)OC)c(NC(=O)CC2SC(=NC)N(C)C2=O)s1 (configuration not stated),99,i,1,-3,nt,nt,nt
N#CC1=C(N)SC(N)=C(C#N)C1c1cccc(Oc2ccccc2)c1,96,i,1.1,-2,-0.9,37,70
N#CC1=C(N)C(C#N)(C#N)C(c2cccnc2)C2COCC=C12 (configuration not stated),100,i,0.92,0,-0.4,0,137
CC1=NNC(=O)C1CCC(=O)N/N=C/C(Br)=C/c1ccccc1 (configuration not stated),90,i,0.8,-1,-1.0,nt,nt
COc1ccc(/C=C/C(=O)Nc2cccc(S(=O)(=O)N3CCCC3)c2)cc1OC,103,i,0.9,1,nt,nt,nt
CC(=O)c1c(C)nc(-c2ccc(Cl)cc2)nc1NC(=O)C(C)C,75,i,0.76,-3,-1.5,-26,215
Cc1c(C(=O)Oc2ccc(-c3cnc4ccccc4n3)cc2)cccc1[N+](=O)[O-],70,i,1.4,-3,-2.2,nt,nt
Cc1ccccc1C(=O)Nc1ccc2nc3n(c(=O)c2c1)CCC3,111,i,0.92,2,-1.3,nt,nt
O=C(NC1CCCCC1)C(c1ccccc1)N1CCC2(CC1)OCCO2 (configuration not stated),142,i,1,-19,-0.6,nt,nt
COc1ccc(-c2nc3cc(NC(=O)c4ccc5c(c4)OCO5)ccc3o2)cc1,115,i,0.81,5,-1.8,9,74
O=C(Nc1nccs1)c1ccc(Cl)c(S(=O)(=O)N2CCCCC2)c1,104,i,0.99,-4,-0.4,-46,83
Cc1cc(Nc2cccc(Cl)c2)n2ncnc2n1,97,nt,nt,-5,-0.6,0,112
CC1CCCN(C(c2ccccc2)c2sc3ncnn3c2O)C1 (configuration not stated),102,i,0.72,-6,nt,nt,nt
Clc1ccc(CO/N=C2\CCCc3nonc32)cc1,102,i,1.1,9,-0.5,0,124
O=C(C[n+]1ccc(C(=O)N/N=C/c2ccc(OCc3ccccc3)cc2)cc1)c1ccccc1,99,i,0.94,2,2.4,nt,nt
# Continuation:
SMILES,RGS16-Gao HTS,HSV replic up,HSV replic up primary fold,PKD1 kinase inh,GALR2 agonist,INS promoter inh,INS promoter inh cell count
O=C(Cn1c(-c2ccco2)nc2ccccc21)N1CCCCC1,105,i,1,3,-1.7,-6,151
COc1ccccc1NC(=O)c1ccc(NS(=O)(=O)c2c(C)noc2C)cc1,101,i,1,18,-3.2,nt,nt
O=C(CSCc1ccc(F)cc1)Nc1ccccc1,97,i,1.1,6,-2.6,22,84
Cc1ccc2c(CC(=O)Nc3ccc(N4CCN(C)CC4)cc3C)coc2c1,109,i,0.77,-6,-0.3,30,117
